# Compound activity deposited in PubChem BioAssay by several laboratories.
# Yeast UUG start – modulators of yeast start codon fidelity, primary screen, whole organism, S. cerevisiae, single point, plate reader | S. cerevisiae UUG-firefly luciferase reporter, luminescence/redox ratio | 0.13% of 350,000 active | AID 602363, 2012 | activity score, % at 18.7 µM;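 active means replicate mean at a twofold rise or more, about +100% in these data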;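 further: firefly luciferase made from a UUG start codon reports start codon fidelity; reporter light over untreated wells divided by growth signal over untreated wells; some hits fall short of that in this replicate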
# Rce1 inhib – yeast Rce1p protease inhibitors, primary screen, biochemical, fluorescence, cell-free homogeneous | yeast membranes, quenched prenylated peptide cleavage fluorescence | 0.27% of 290,000 active | CAAX prenyl protease 2 (Saccharomyces cerevisiae (strain ATCC 204508 / S288c)), Q03530 | calls only;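 active means fall in fluorescence gain of 50% or more versus controls, with final raw signal at or below 3038400; inconclusive means same 50% fall but final raw signal above 3038400; inactive means fall in fluorescence gain under 50%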;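 further: plate controls were neutral control wells for no effect and wells lacking membranes for full effect; tested at 10 µM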
# Target sequence (Q03530 whole entry, looked up): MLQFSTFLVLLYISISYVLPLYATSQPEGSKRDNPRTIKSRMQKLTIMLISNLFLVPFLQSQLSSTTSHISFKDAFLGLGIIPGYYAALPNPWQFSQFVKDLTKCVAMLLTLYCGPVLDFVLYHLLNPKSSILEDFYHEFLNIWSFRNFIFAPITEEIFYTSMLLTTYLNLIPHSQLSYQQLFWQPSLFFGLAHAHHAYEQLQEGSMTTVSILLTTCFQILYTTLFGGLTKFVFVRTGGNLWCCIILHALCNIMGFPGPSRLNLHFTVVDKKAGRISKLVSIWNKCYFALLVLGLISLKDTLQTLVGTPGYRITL
# PABP polyA inh – PABP poly(A) RNA binding inhibitors, primary screen, biochemical, fluorescence polarization, uHTS; Polyadenylate-binding protein 1 (Homo sapiens), P11940; inhibition, % at 35 µM; 1% of 290,000 active; AID 2014, 2009;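 active means 50% or more with normal probe brightness, or confirmed in later tests; inconclusive means above 50% with abnormal brightness, or retests that disagree; inactive means below 50% or failed in later tests; about a fifth of its hits are not listed in these tables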;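 further: calls also rest on retests at 20 µM and on dose response follow-up; controls were probe without protein and protein plus probe with vehicle; some compounds called inactive have numbers as strong as hits; many hits fall short of the cut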
# CSC inhib – cancer stem cell viability inhibitors, primary screen, luminescence; cancer stem cell-like cells viability; inhibition, % at 7.5 µM; 1.1% of 300,000 active; AID 2717, 2010;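 active means mean at 75% or more and at least half the replicates too; inconclusive means mean and replicates disagree; tested in HMLE shEcad cells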;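 further: 0% = median of negative and 100% = median of positive control wells; the first replicate is given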
# MT1-MMP act inh – blockers of MT1-MMP proenzyme processing, primary screen, HT1080 RFP-PRO-GFP cells, GFP/RFP fluorescence | Matrix metalloproteinase-14 (Homo sapiens), P50281 | GFP/RFP ratio fluorescence, overnight; percent of plate control window, DMSO zero | GFP/RFP ratio change, % at 20 µM | 0.061% of 360,000 active | AID 651647, 2012;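 active means GFP/RFP ratio change of at least 30% with cell ATP level not reduced by more than half and red fluorescence within 50% of control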; further: strong numbers were not always called active
#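 Test system: HT1080 cells expressing an RFP-PRO-GFP fluorescent reporter construct / Compound dosing: single-point 20 µM compound, 1% DMSO / Schedule: cells overnight before dosing, compound overnight, 37 °C, 5% CO2 / Evaluation: GFP/RFP fluorescence ratio / Control set: DMSO and RFP-L50D-GFP cell wells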
# Env fusion inh – inhibitors of HIV-1 Env-driven cell-cell fusion, primary screen, HeLa-JRFL effector, CEM21 target cells, luciferase. inhibition, % at 12.3 µM. 1.1% of 360,000 active. AID 651610, 2012;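 active means mean replicate inhibition score of at least 50 and every replicate individually at or above 50; inconclusive means only one of the two criteria met; inactive means mean below 50 and not all replicates reaching 50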;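 further: 0% = plate neutral controls and 100% = maraviroc near 300 nM; one replicate is shown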
# eIF4H inh – human eIF4H binding inhibitors, primary screen, translation initiation inhibitor project, biochemical, uHTS, fluorescence polarization; Eukaryotic translation initiation factor 4H (Homo sapiens), Q15056; inhibition, % at 35 µM; eIF4H fluorescence polarization binding assay; 0.94% of 290,000 active;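 active means 50% or more with normal probe brightness, or confirmed in later tests; inconclusive means above 50% with abnormal brightness, or retests that disagree; inactive means below 50% or failed in later tests; about a fifth of its hits are not listed in these tables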;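 further: calls also rest on retests at 20 µM and on dose response follow-up; 0% = protein and probe with vehicle and 100% = probe without protein; strong numbers were not always called active; many hits fall short of the cut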
# MT1-MMP act inh RFP – second read-out of MT1-MMP act inh, no call of its own (marks repeat the call); RFP signal change, %; measured here: RFP expression control read;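 0 = vehicle wells; hits needed this value within 50% of zero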
# * hit, by the source's call; i = inactive; ? = inconclusive; · = no result given. These rows are one share of the data; the hit share may differ from the screen's.
entry	SMILES	Yeast UUG start	Rce1 inhib	PABP polyA inh	CSC inhib
1	CCCN(CCC)Cc1cc(=O)oc2ccc3ccccc3c12	-15	·	·	·
2	Cc1cccc(NS(=O)(=O)c2cccc(C(=O)N3CCCCCCC3)c2)c1	2	·	·	-14
3	COc1ccc(NC(=O)c2cccnc2Nc2ccc(OC)cc2)cc1	·	i	-4	4
4	CCOC(=O)C1CCCN(C(=O)c2cn(CC)c3ccc(S(=O)(=O)N4CCCC4)cc3c2=O)C1 (stereo not drawn)	-15	·	-5	·
5	Cc1cccc(NC(=O)C2CCN(S(=O)(=O)c3c(C)noc3C)CC2)c1	-4	i	2	-11
6	c1ccc(CNc2nc(-c3cccs3)nc3ccccc23)nc1	·	i	-2	-8
7	COCCCNC(=O)CS(=O)(=O)Cc1nc(-c2ccccc2C)oc1C	-4	i	-13	-8
8	O=C(CN1C(=O)S/C(=C\c2cccc(Cl)c2)C1=O)NC1C=CS(=O)(=O)C1 (stereo not drawn)	-7	i	8	2
9	CONC(=O)Nc1ccccc1[N+](=O)[O-]	·	i	7	-2
10	COc1cccc(C(=O)NN2C(=S)N(c3ccccc3)C(=O)C2CC(N)=O)c1 (stereo not drawn)	·	i	6	-4
11	COc1ccc(N(C2CSC2)S(=O)(=O)c2ccccc2)cc1	0	i	-6	11
12	COc1cc(C)ccc1OCc1cc(C(=O)NCc2ccncc2)no1	-8	·	-6	-1

entry	MT1-MMP act inh	MT1-MMP act inh RFP	Env fusion inh	eIF4H inh
1	-1	-1	-5	·
2	2	-8	10	·
3	-2	2	·	5
4	4	0	-84	-11
5	3	9	0	-8
6	1	-11	4	5
7	-4	0	13	2
8	-5	-3	-18	-12
9	5	8	-10	-2
10	-1	-3	-31	17
11	0	-1	-11	-5
12	-4	-1	-21	-3

# Following part.
entry	SMILES	Yeast UUG start	Rce1 inhib	PABP polyA inh	CSC inhib
13	Cc1cc(C(=O)N/N=C/c2ccncc2)c(C)o1	·	i	3	-6
14	Cc1cccc(S(=O)(=O)Nc2ccc(-c3nc4ccc(C)cc4s3)cc2)c1	·	i	-2	27
15	CC(=O)c1cc(-c2nc3ccccc3n2C)n(C)c1	-12	i	2	-15
16	CCOc1ccc(NC(=O)CN(C)C(=O)COc2cccc3c2OC(C)(C)C3)cc1OCC	-7	·	·	-20
17	COC(=O)[C@H]1Cc2c([nH]c3ccccc23)[C@H](c2ccccc2)N1	-12	i	2	-12
18	Cc1ccc(S(=O)(=O)N2CCCCC2)cc1C(=O)N(C)CCOc1ccccc1	5	i	13	8
19	CC[C@]12c3[nH]c4ccc(Cl)cc4c3CCN1C(=O)[C@@H](CC(=O)NCCC1=CCCCC1)C[C@@H]2C(=O)N1CCN(C(=O)C2CC2)CC1	16	·	·	·
20	Cc1noc(C)c1CSc1ccccc1C(=O)N1CCN(c2ccccc2)CC1	16	i	6	18
21	COc1cccc2c1cc1c(=O)n(CC(=O)NC3CCCCC3)nc(C)n12	3	i	-1	-11
22	COC(=O)C1=C(C)N(Cc2cccnc2)C(=O)C1	-24	·	-9	-1
23	CN1CCN(C(=O)c2ccc3c(c2)OCCO3)CC1	-13	i	8	2
24	COc1ccc(N2CCN(C(=O)c3ccc(N(C)S(=O)(=O)c4ccc(C)cc4)cc3)CC2)cc1	·	i	2	15

entry	MT1-MMP act inh	MT1-MMP act inh RFP	Env fusion inh	eIF4H inh
13	3	1	-2	-1
14	-2	0	-83	-8
15	1	5	i	0
16	3	2	·	·
17	-1	2	0	-4
18	2	-9	-18	-2
19	0	-10	-28	·
20	-3	-6	·	10
21	-6	4	·	-4
22	-4	3	-14	1
23	4	11	·	4
24	-3	-21	33	11

# Arranged by the number under MT1-MMP act inh RFP (rising): 3 from the list above
no.	Structure	MT1-MMP act inh RFP
7	COCCCNC(=O)CS(=O)(=O)Cc1nc(-c2ccccc2C)oc1C	0
17	COC(=O)[C@H]1Cc2c([nH]c3ccccc23)[C@H](c2ccccc2)N1	2
9	CONC(=O)Nc1ccccc1[N+](=O)[O-]	8

# Next part:
entry	SMILES	Yeast UUG start	Rce1 inhib	PABP polyA inh	CSC inhib
25	COc1ccc(N(CC(=O)N/N=C/c2ccc(N(C)C)cc2)S(=O)(=O)c2ccccc2)cc1	-17	i	-1	-16
26	Cc1cc(NC(=O)COC(=O)[C@H](Cc2c[nH]c3ccccc23)NC(=O)c2ccc(F)cc2)no1	26	i	1	-5
27	CN(C)S(=O)(=O)c1cccc(C(=O)N2CCc3ccccc32)c1	-9	i	-8	28
28	CCOc1ccc(Nc2nc(N)c3ccccc3n2)cc1	-82	i	-1	·
29	Cc1ccccc1NC(=O)/C(C#N)=C\c1cn(CC(=O)O)c2ccccc12	·	i	6	-9
30	NC(=O)C1CCCN(C(=O)CNC(=O)C23CC4CC(CC(C4)C2)C3)C1 (stereo not drawn)	-17	·	·	·
31	Cc1ccccc1NC(=O)Cc1nnc(SCc2ccc(Cl)c(Cl)c2)n1C	-8	i	-4	-12
32	Cn1cnc(S(=O)(=O)NC2CCN(Cc3ccccc3)CC2)c1	-13	i	-4	·
33	COC(=O)/C=C1/N/C(=N\c2nc(C)cc(C)n2)N(c2ccc(Cl)cc2)C1=O	·	i	-6	-10
34	Cc1cc(C)c(S(=O)(=O)CCC(C)C)c(=O)[nH]1	·	i	0	-7
35	CC(=O)c1cccc(NC(=O)C2CCCC2)c1	-20	i	-5	2
36	COc1ccc(CCNC(=O)C2(C)CCC(=O)N2Cc2ccc(F)cc2Cl)cc1OC (stereo not drawn)	-3	i	-4	-7

entry	MT1-MMP act inh	MT1-MMP act inh RFP	Env fusion inh	eIF4H inh
25	0	-1	-2	-15
26	-2	4	·	-8
27	1	6	·	0
28	22	0	-36	-9
29	-1	0	-5	1
30	1	-1	2	·
31	3	1	7	2
32	0	2	0	-5
33	-4	1	16	-1
34	1	2	5	-1
35	0	4	·	-5
36	-1	-1	13	-9

# Entries of single compounds as entered above. Order of values: Yeast UUG start | Rce1 inhib | PABP polyA inh | CSC inhib | MT1-MMP act inh | MT1-MMP act inh RFP | Env fusion inh | eIF4H inh
# `COc1ccc(N(CC(=O)N/N=C/c2ccc(N(C)C)cc2)S(=O)(=O)c2ccccc2)cc1` is entered as -17 | i | -1 | -16 | 0 | -1 | -2 | -15
# `CCOc1ccc(Nc2nc(N)c3ccccc3n2)cc1` is entered as -82 | i | -1 | · | 22 | 0 | -36 | -9
# `CC(=O)c1cccc(NC(=O)C2CCCC2)c1` is entered as -20 | i | -5 | 2 | 0 | 4 | · | -5
# `Cc1cc(NC(=O)COC(=O)[C@H](Cc2c[nH]c3ccccc23)NC(=O)c2ccc(F)cc2)no1` is entered as 26 | i | 1 | -5 | -2 | 4 | · | -8
# `COc1ccc(CCNC(=O)C2(C)CCC(=O)N2Cc2ccc(F)cc2Cl)cc1OC` (stereo not drawn) is entered as -3 | i | -4 | -7 | -1 | -1 | 13 | -9

# Following part
entry	SMILES	Yeast UUG start	Rce1 inhib	PABP polyA inh	CSC inhib
37	Cc1cccc(C2=NN(c3ccccc3)[C@@H](C(=O)N3CCOC3=O)[C@@H]2c2ccc(Cl)cc2)c1	-8	·	·	·
38	Cn1c2ccccc2c2cnn(CC(=O)N3CCCCC3)c(=O)c21	·	i	5	4
39	COc1ccc(C2=NOC(C(=O)N3CCCCCC3)C2)cc1OC (stereo not drawn)	-13	i	5	-10
40	Cc1ccc2c(c1)N(CC(=O)NC1CCCC(C)C1C)C(=O)c1cccnc1O2 (stereo not drawn)	-12	i	0	0
41	CN(CCCNC(=O)c1cn(C)c2ccc(S(=O)(=O)N(C)C)cc2c1=O)c1ccccc1	-17	i	-17	1
42	O=C(CNC(=O)c1ccco1)Nc1ccncc1	-21	i	·	-15
43	COC(=O)c1ccc(CSc2nc(C(F)(F)F)c3c(c2C#N)CCC3)o1	-18	i	2	-4
44	COc1ccc(S(=O)(=O)Nc2cccc(S(=O)(=O)NC3=NCCC3)c2)cc1[N+](=O)[O-]	·	i	·	3
45	NS(=O)(=O)c1ccc(CNC(=O)c2cc(-c3cccs3)nc3ccccc23)cc1	-25	i	12	-3
46	COC(=O)c1c(C)oc2ccc(N(C(=O)Oc3ccccc3)S(=O)(=O)c3ccccc3)cc12	·	i	0	2
47	Brc1ccccc1-n1nnc(-c2cnc3ccccc3c2)n1	-50	i	·	-3
48	Cc1ccc(NC(=O)C(=O)NCCN2CCN(C(=S)Nc3ccccc3)CC2)cc1	-13	i	13	-10

entry	MT1-MMP act inh	MT1-MMP act inh RFP	Env fusion inh	eIF4H inh
37	0	2	6	·
38	0	-2	-22	-1
39	0	2	·	-9
40	8	-2	28	3
41	-1	-2	9	-5
42	4	5	-7	·
43	-3	1	·	9
44	-2	-1	-11	·
45	0	-4	-1	-10
46	-15	-22	?	-12
47	-1	0	-140	·
48	1	0	0	12

# Other results
entry	SMILES	Yeast UUG start	Rce1 inhib	PABP polyA inh	CSC inhib
49	O=C(Nc1nncs1)c1cc(S(=O)(=O)N2CCOCC2)ccc1Cl	-13	i	2	·
50	CCCCOC(=O)C1=C(C)Nc2ncnn2C1c1cc(OC)ccc1OC (stereo not drawn)	-7	i	-7	-16
51	COc1ccc(Nc2nc(-c3cccc(OC)c3O)nc3ccccc23)cc1	3	i	11	43
52	Cc1ccc(-c2nnc3cccc(Cl)n23)cc1	-10	i	6	5
53	CN=c1scc(C)n1/N=C/c1ccc(O)cc1O	·	i	2	-5
54	CN(C)CCNC(=O)C12CC3(C)CC(C)(CC(C)(C3)C1)C2	-20	i	-4	-6
55	Cc1ccc(/C(=N/Nc2nc3ccccc3s2)C2=C(O)c3ccccc3C2=O)cc1	·	i	-14	-9
56	CCOC(=O)C1=NN(c2ccc(Cl)cc2)/C(=C/C2=NCCc3cc(OC)c(OC)cc32)S1	·	i	10	-9
57	O=C(Nc1ccc2c(c1)OCO2)C1CCN(S(=O)(=O)c2ccc3c(c2)OCCO3)CC1	-7	i	0	1
58	CCN1CCCC1CNC(=O)C1CCN(Cc2nc(-c3cccc(Br)c3)oc2C)CC1 (stereo not drawn)	-8	i	24	·
59	O=C(CC1C[C@H](C(=O)N2CCOCC2)[C@@]2(CCC3CCCC3)c3[nH]c4ccccc4c3CCN2C1=O)NCCN1CCOCC1 (stereo partly drawn)	-15	·	·	·
60	CCN1C/C(=C/c2sccc2C)c2nc3ccccc3c(C(=O)O)c2C1	-13	i	83*	-17
61	O=C(Nc1ccc(NC(=O)c2cccs2)cc1Cl)c1ccco1	·	i	8	6
62	CCOc1ccc(CCNC(=O)CCC(=O)Nc2ccc3nc(N4CCN(C)CC4)cc(C)c3c2)cc1OCC	-2	i	12	15

entry	MT1-MMP act inh	MT1-MMP act inh RFP	Env fusion inh	eIF4H inh
49	0	4	-5	-6
50	1	1	i	4
51	-13	-11	-30	-3
52	-1	6	-5	14
53	3	-14	·	1
54	14	6	·	-24
55	-2	2	-9	-9
56	-9	-5	6	-1
57	20	0	·	-10
58	5	0	·	4
59	1	4	-58	·
60	-5	-2	-1	72*
61	0	-4	-38	5
62	1	3	1	-2
